AmpC nodet inh: inhibitors of E. coli AmpC beta-lactamase without detergent | hit rate 1.8% among 71,000 | AmpC nitrocefin hydrolysis, absorbance 480 nm, no detergent; potencies from a single point are estimates | Potency, µM (series often up to 28.7 µM), for the others: at the highest dose activity change, negative = inhibition | P00811; active = falling curve, for most hits resting on a single point; inconclusive = weak or doubtful change; inactive = flat or rising curve; note: % of control where 0% means no effect; about half of the hits show no inhibition at the top dose; a quarter of the inactives give rising signals
Target sequence (P00811 whole entry, looked up): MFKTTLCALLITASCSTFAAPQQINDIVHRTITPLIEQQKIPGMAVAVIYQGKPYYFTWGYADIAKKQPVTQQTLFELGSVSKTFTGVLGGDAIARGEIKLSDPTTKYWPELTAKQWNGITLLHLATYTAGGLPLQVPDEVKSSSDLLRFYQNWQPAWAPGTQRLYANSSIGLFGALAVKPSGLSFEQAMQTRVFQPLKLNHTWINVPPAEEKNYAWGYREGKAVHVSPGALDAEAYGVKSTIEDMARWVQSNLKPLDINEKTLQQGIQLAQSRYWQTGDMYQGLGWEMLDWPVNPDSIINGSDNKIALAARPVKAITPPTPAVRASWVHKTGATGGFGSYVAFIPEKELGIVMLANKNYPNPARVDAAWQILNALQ
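AmpC in 20 mM phosphate buffer pH 7.0 was preincubated 15 min at room temperature with compounds. Nitrocefin (800 uM stock) was then added and hydrolysis followed at 480 nm every 20 s for 4 min.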
Starred values were filed as active, the others as inactive; [ ] = another dose, or the depositor's remark. Potency is the fitted concentration of half-maximal effect. The list is partial (hit frequency here may not be typical).

SMILES | AmpC nodet inh
CCN=C1SC(C(=O)Nc2cccc(C(=O)O)c2)CC(=O)N1CC (stereo unspecified) | -6.8%
O=C1NCC(CN(c2ccccc2)c2ccccc2)O1 (stereo unspecified) | 29.9%
CCCNC(=O)Cc1ncn[nH]1 | 2.8%
O=C(O)C(O)(c1ccc(-c2ccccc2)cc1)c1ccc(-c2ccccc2)cc1 | -0.7%[5.75 µM]
CNc1ccc([N+](=O)[O-])cc1 | -5.1%
CCCCn1cnc2sc3c(c2c1=N)CCCC3 | -4.2%
CSc1nnc2c(n1)[nH]c1c(C)cccc12 | -10.3%
CCOC(=O)c1ccccc1NC(=O)Cn1cnc2c1c(=O)n(C)c(=O)n2C | 2.5%
O=C(Cn1cnc2c(nnn2Cc2ccc(F)cc2)c1=O)N1CCN(c2ccccc2)CC1 | 40.4%
CC(=O)C(Sc1nc(-c2ccco2)nc2c1c(=O)n(C)c(=O)n2C)C(=O)N(C)C (stereo unspecified) | 19.5%
Cc1c(/C(O)=C2/C(=O)C(=O)N(CCN3CCOCC3)C2c2ccco2)cnn1-c1ccccc1 (stereo unspecified) | 8.1%
COc1ccccc1CNS(=O)(=O)c1cccc(S(=O)(=O)N2CCOCC2)c1 | 10.5%
COc1cccc(C2c3c(oc4ccc(Cl)cc4c3=O)C(=O)N2c2cc(C)on2)c1OC (stereo unspecified) | 74.2%
COc1ccccc1CN(Cc1cc2cc(C)cc(C)c2[nH]c1=O)Cc1nnnn1CC1CCCO1 (stereo unspecified) | 111.2%
O=C1CCCCCN1CP(=O)(O)CCc1ccccc1 | -5.3%
O=C(NC(Cc1ccccc1)C(=O)O)c1ccccc1 (stereo unspecified) | -2.6%
O=C1OCc2ccc(NC(=O)C3CCCCC3)cc21 | 5.1%
CCOC(=O)C1=C(N)Oc2cc(C)oc(=O)c2C12C(=O)N1c3c(cccc32)C(C)=CC1(C)C (stereo unspecified) | 116.8%
CCOC(=O)c1c(C)n(CCN2CCN(C)CC2)c2ccc(OC)cc12 | 36.4%
S=c1[nH]c2ncccc2o1 | -8.1%
CCCCN(C)C(=O)c1cn(C)c2ccc(S(=O)(=O)N(C)C)cc2c1=O | 0.8%
CC1CN(C(=O)c2cc(F)c(F)cc2Cl)CC(C)O1 (stereo unspecified) | 26.6%
COCCOC(=O)C(C#N)c1nc2ccccc2nc1N1CCN(Cc2ccccc2)CC1 (stereo unspecified) | 114.3%
COc1ccc(C2C(C(=O)c3sc(C)nc3C)=C(O)C(=O)N2CCN2CCOCC2)cc1 (stereo unspecified) | -8.1%
COc1ccc(CN(C(=O)CNC(=O)c2ccco2)C(C(=O)NC2CCCC2)c2ccco2)cc1 (stereo unspecified) | 39.2%
Cc1ccc2c(CC(=O)OCn3nnc4ccccc4c3=O)coc2c1 | 6.9%
CCc1nnc(NC(=O)CSc2nnc(CNc3cccc(C)c3)n2-c2ccccc2)s1 | 89.1%
CC(C)c1nc2oc3c(NCC4CCCO4)ncnc3c2c2c1CCC2 (stereo unspecified) | 135.6%
O=C(NCC(c1cccnc1)N1CCN(c2ccccc2)CC1)Oc1ccccc1 (stereo unspecified) | 82.0%
O=C(Nc1cccnc1)c1cc2c(ccc3ccccc32)o1 | -11.0%
COc1ccc(-c2noc(COc3ccc4c(c3)OCO4)n2)cc1 | -4.0%
COc1ccc2c(c1)cc1n2CCN2CCCN=C12 | -0.5%
O=S(=O)(NCCSc1nnnn1-c1ccccc1)c1cccs1 | -2.4%
O=C(NC1CCS(=O)(=O)C1)c1cn(-c2ccccc2)nc1-c1ccccc1 (stereo unspecified) | 38.5%
COC(=O)CC1NCCNC1=O (stereo unspecified) | 0.8%
Cc1oc(C)c2c(=O)ccc3c(c12)OC(N)=C(C#N)C3c1ccc(F)cc1 (stereo unspecified) | -9.1%
CCCCCCCCCCCCC(=O)N1CCCC[C@H]1CNC(=O)[C@@H](N)CCCCN | 184.2%
COc1cccc(N=Cc2ccc(O)cc2O)c1 | -22.2%
Cn1c(=O)c(C(=O)NC2CCCCCCC2)c(O)c2ccccc21 | -3.8%
CC(=O)Oc1c(S(=O)(=O)c2ccc(C)cc2)c(C)nn1C(C)(C)C | 39.8%

Of the compounds above, 13 contain four or more nitrogen atoms:
SMILES | AmpC nodet inh
CCCNC(=O)Cc1ncn[nH]1 | 2.8%
CSc1nnc2c(n1)[nH]c1c(C)cccc12 | -10.3%
CCOC(=O)c1ccccc1NC(=O)Cn1cnc2c1c(=O)n(C)c(=O)n2C | 2.5%
O=C(Cn1cnc2c(nnn2Cc2ccc(F)cc2)c1=O)N1CCN(c2ccccc2)CC1 | 40.4%
CC(=O)C(Sc1nc(-c2ccco2)nc2c1c(=O)n(C)c(=O)n2C)C(=O)N(C)C (stereo unspecified) | 19.5%
Cc1c(/C(O)=C2/C(=O)C(=O)N(CCN3CCOCC3)C2c2ccco2)cnn1-c1ccccc1 (stereo unspecified) | 8.1%
COc1ccccc1CN(Cc1cc2cc(C)cc(C)c2[nH]c1=O)Cc1nnnn1CC1CCCO1 (stereo unspecified) | 111.2%
COCCOC(=O)C(C#N)c1nc2ccccc2nc1N1CCN(Cc2ccccc2)CC1 (stereo unspecified) | 114.3%
CCc1nnc(NC(=O)CSc2nnc(CNc3cccc(C)c3)n2-c2ccccc2)s1 | 89.1%
CC(C)c1nc2oc3c(NCC4CCCO4)ncnc3c2c2c1CCC2 (stereo unspecified) | 135.6%
O=C(NCC(c1cccnc1)N1CCN(c2ccccc2)CC1)Oc1ccccc1 (stereo unspecified) | 82.0%
O=S(=O)(NCCSc1nnnn1-c1ccccc1)c1cccs1 | -2.4%
CCCCCCCCCCCCC(=O)N1CCCC[C@H]1CNC(=O)[C@@H](N)CCCCN | 184.2%

(listing goes on)
SMILES | AmpC nodet inh
CC1=C(C(=O)OC2CCCCC2)C(c2cccnc2)n2nnnc2N1 (stereo unspecified) | 3.3%
N#CNC(N)=Nc1cccc(Cl)c1 | -13.6%
COc1ccc(-c2noc(CN3CCOCC3)n2)cc1OC | 3.8%
CCCCn1cnc2c(c(CC#N)nn2-c2ccccc2)c1=N | 1.3%[5.75 µM]
CCOC(=O)N1CCC(N(C(=O)Nc2ccc(CC)cc2)C(C)CC)CC1 (stereo unspecified) | 47.4%
CCCCSc1nnc(-c2ccc(C)cc2)o1 | 7.9%
COc1ccccc1NC(=O)C1CCCN1C(=O)NCc1ccccc1 (stereo unspecified) | 8.3%
CC(=O)c1ccc(Cc2cnc(N)s2)cc1 | -16.3%
O=C(O)C1CC=CCC1C(=O)Nc1ccccc1Cl (stereo unspecified) | -3.0%
CCOC(NC(=O)c1ccccc1)C(NC(=O)c1ccccc1)OCC (stereo unspecified) | 10.9%
O=C(CCc1nc2ccccc2s1)N1CCN(S(=O)(=O)c2cccs2)CC1 | 53.3%
Cc1cc(C(=O)COc2nncc3ccccc23)c(C)n1C | 26.2%
COc1ccc2c(CC(=O)NCc3ccc4c(c3)OCO4)coc2c1 | -8.7%
CC(O)C(=O)O (stereo unspecified) | -5.0%
Cc1ccc(N2C(N)=C(C#N)C(c3cccnc3)C3=C2CC(C)(C)CC3=O)cc1 (stereo unspecified) | 20.8%
O=[N+]([O-])c1ccc(C2=Nn3c(nnc3-c3ccc(Cl)cc3)SC2)o1 | 12.5%[5.75 µM]
Cc1cc(N2CCN(C)CC2)nc2ccc(NC(=O)CCC(=O)NCCC3=CCCCC3)cc12 | 115.0%
c1ccc2[nH]c(SCc3cscn3)nc2c1 | -10.4%
CCC1CCCCN1CCCNC(=O)CNC(=O)Cn1ccc2ccccc2c1=O (stereo unspecified) | 45.6%
O=C(c1ccco1)N1CCC2(CC1)CCN(c1ccccc1)CC2 | 69.9%
CN(C)C(=O)c1ccc(-c2cncnc2NCc2cccnc2)cc1 | 2.1%
O=C(c1cc2cc3ccc(Cl)cc3nc2o1)N1CCN(Cc2ccc3c(c2)OCO3)CC1 | 64.1%
CCC(C)(C(=O)NC1CCCCC1)N(Cc1ccco1)C(=O)CC1NC(=O)NC1=O (stereo unspecified) | 12.8%
Cc1cc(=O)oc2cc(OCC(=O)OCC(=O)N3CCc4ccccc43)ccc12 | 11.3%
Cc1ccc(S(=O)(=O)Nc2ccc(S(=O)(=O)N3CCCC3)cc2)cc1 | -18.0%
CCC1CCCCN1C(=O)COC(=O)c1ccc(S(=O)(=O)N2CCOCC2)cc1 (stereo unspecified) | 62.2%
CCn1c(CNC(=O)c2cccc(C)c2)nc2ccccc21 | 7.4%
COc1cc(Cl)c(C)cc1NC(=O)CSc1nnc(-c2ccccn2)n1Cc1ccco1 | 14.1%
O=C(Nc1nc(-c2cccs2)cs1)c1ccc(S(=O)(=O)N2CCCC2)cc1 | 12.6µM*
CCCN1Cc2cccc(C(=O)Nc3cc(OC)cc(OC)c3)c2C1=O | 113.9%
CC1CCCCC1NC(=O)CCCc1nc2ccccc2c(=O)[nH]1 (stereo unspecified) | 18.0%
Cc1ccc(-c2noc(CSc3nnnn3-c3ccccc3)n2)cc1 | -16.0%
O=C(NCc1cccs1)c1nc2c(nnn2Cc2ccc(F)cc2)c(=O)[nH]1 | -7.6%
NC(=O)C1(N2CCCCC2)CCN(C(=O)c2ccc(-n3cnnn3)cc2)CC1 | 10.9%
CCCCNC(=O)CS(=O)Cc1nc(-c2cccc(Cl)c2)oc1C (stereo unspecified) | 84.6%
Cc1c(NC(=O)C(C#N)=C2CCCCC2)c(=O)n(-c2ccccc2)n1C | -3.3%
CCC1Oc2ccc(C)cc2N(CC(=O)NCCCN2CCCCC2CC)C1=O (stereo unspecified) | 4.6%
COc1ccc(OC)c(S(=O)(=O)NC2CCN(Cc3ccccc3)CC2)c1 | 41.6%
O=C(CSc1nnc(-c2cccs2)n1-c1ccccc1)c1ccc2c(c1)OCCO2 | 41.3%
Cc1nc(NC2=NCN(CCc3ccccc3)CN2)nc2ccccc12 | 2.2%
COC(=O)c1c(C(=O)OC)c2n(c1C)Cc1ccccc1C2 | 29.2%
CCN1CSC(=S)N(Cc2ccc(OC)cc2)C1 | -1.5%
O=C(CCNC(=O)c1ccc(Br)o1)NCc1ccc(Cl)cc1 | 8.9%
CCN(CC)CCn1c(NCc2cccc(OC)c2)nc2ccccc21 | -13.9%
CO[C@H]1/C=C/O[C@@]2(C)Oc3c(C)c(O)c4c(O)c(c5c(c4c3C2=O)NC2(CCN(CC(C)C)CC2)N=5)=NC(=O)/C(C)=C\C=C\[C@H](C)[C@H](O)[C@@H](C)[C@@H](O)[C@@H](C)[C@H](OC(C)=O)[C@@H]1C | 134.2%
CCC1Oc2ccc(C)cc2N(CC(=O)NCCCN2CCN(Cc3ccccc3)CC2)C1=O (stereo unspecified) | 75.6%
COc1ccccc1C1SCCN1S(=O)(=O)c1cccc(C(F)(F)F)c1 (stereo unspecified) | -7.6%
O=C(Nc1c(C(=O)N2CCCCC2)cnn1-c1ccccc1)c1ccco1 | -0.1%
Cc1cccc(Cn2c(NCC(C)O)nc3c2c(=O)n(C)c(=O)n3C)c1 (stereo unspecified) | 16.2%
O=C(CSc1nnc(-c2cccnc2)n1-c1ccccc1)NCc1ccc2c(c1)OCO2 | 20.2%
CCc1cc(N2CCOCC2)cc2c1[nH]c1ccccc12 | 11.4%
COc1cccc2cc(C(=O)N3CCN(C(=O)c4ccco4)CC3)c(=O)oc12 | 0.7%
CCOC(=O)c1c(NC(=O)CSc2nnc(-c3cccnc3)o2)sc(C(C)=O)c1C | 121.0%
Cc1cc(NC(=O)CN2CCN(c3ccccc3O)CC2)no1 | 16.2%
Cc1noc(C)c1C(=O)N1CCC2(CC1)CCN(c1ccccn1)CC2 | 30.5%
COc1cc2c(cc1OC)C(C(=O)NC1CC1)C1c3ccccc3CCN1C2=O (stereo unspecified) | 15.7%
CC(C)COC(=O)c1cc(-c2ccc(/C=N/n3cnnc3)o2)ccc1Cl | 28.6%
COc1ccc(CNC(=O)c2ccc(N3CCCC3=O)cc2)cc1 | 7.4%
Cc1ccc(NC(=O)c2ccccc2O)cc1 | -10.0%
COc1ccc(C(c2nnnn2C2CCCC2)N2CCc3ccccc3C2)cc1OC (stereo unspecified) | 127.0%
Other compounds follow.
SMILES | AmpC nodet inh
O=c1[nH]c2ccccc2n1CCCN1CCN(C(c2ccccc2)c2ccccc2)CC1 | 90.0%
CCCNc1nc2c(c(=O)[nH]c(=O)n2C)n1CCC(C)C | 0.1%
Cc1nc(N2CCN(Cc3ccc4c(c3)OCO4)CC2)c2oc3ccccc3c2n1 | 128.7%
CSC1=NCCN1C(=O)c1ccc(S(=O)(=O)N2CCCCC2)cc1 | 17.5%
O=c1[nH]c2c(n(C3CCCCC3)c1=O)CCC2 | 1.5%
COC(=O)c1[nH]c2cc(OC)ccc2c1NC(=O)CCN1CCCCC1 | -4.6%
CCCc1n[nH]c2c1C(=O)C(C(=O)OC)C(C)(C)C2 (stereo unspecified) | 3.4%
COc1cccc(-c2cc(C(=O)Nc3cc(C)on3)no2)c1 | -15.6%
Cn1cccc1C(=O)N1CCC[C@@]2(CCN(c3ncccn3)C2)C1 | 21.8%
O=C(COc1ccc(Cl)cc1)NCc1nnc(SCC(=O)NC2CCCCC2)o1 | 15.0%
Cn1nc(C(=O)Nc2cccnc2)c2ccccc2c1=O | 2.4%
Cc1cc(C)nc(N2CCCC(C(=O)NCc3cccc(C(F)(F)F)c3)C2)n1 (stereo unspecified) | 90.2%
CC12CCCCC1=NC(c1ccc(Br)cc1)N2O (stereo unspecified) | 3.4%
COc1ccc2[nH]c3c(c2c1)CCn1c-3nc2ccccc2c1=O | -6.8%
Cc1cc(NC(=O)CCCN2C(=O)c3cccnc3C2=O)no1 | -6.5%
Cc1ccc2c(CC(=O)Nc3c(C)n(C)n(-c4ccccc4)c3=O)coc2c1 | 12.2%
CCOC(=O)c1nnn(-c2nonc2N)c1CNc1ccc(C)c(Br)c1 | 32.9%
CC(=O)c1ccc(OCC(O)CN2C(C)(C)CC(O)CC2(C)C)cc1 (stereo unspecified) | 3.98µM*[single pt active]
COCCN(CCOC)S(=O)(=O)c1ccc(C(=O)NCCCN2CCOCC2)cc1 | 6.0%
CCn1cc(C(=O)O)c(=O)c2cnc(N3CCN(C(=O)Nc4cccc5ccccc45)CC3)nc21 | 7.6%
Cn1cccc1C(=O)N1CCC[C@@]2(CCN(Cc3ccccc3)C2)C1 | 59.4%
